# MgrA DNA FP – alters Staphylococcus aureus MgrA binding to DNA; fluorescence polarization; inhibition, %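 (about 10 µg/mL by stock and volumes)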; 0.13% of 84,000 active; AID 602314;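 active means above 50% in either of two replicates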;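 further: 0% = protein plus DNA without compound and 100% = DNA alone without protein; higher means less MgrA bound to DNA so lower polarization; one replicate is shown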
# Sa helicase inh – S. aureus DNA helicase inhibition | purified S. aureus helicase, fluorescence unwinding assay; about half of the hits fall short of the stated cut | inhibition, %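 (tested at about 80 µM)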 | 0.05% of 120,000 active | AID 485395;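 active means both duplicates at 50% or more, or one of them with a favoured structure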;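 further: 0% = mean of negative control wells and 100% = mean of positive control wells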
# An asterisk follows results filed as active; / = no result given. The list is partial. The share of hits here may be higher or lower than overall.
SMILES,MgrA DNA FP,Sa helicase inh
CCN(CC)S(=O)(=O)c1ccc(Cl)c(C(=O)N2CCCCCC2)c1,3.2,19
COc1ccc2cc(C(C)C(=O)Nc3ccc(OC(F)(F)F)cc3)ccc2c1 (configuration not stated),-0.2,/
NNC(=O)Oc1ccccc1,0.7,/
NC(=O)N/N=C/c1ccc(Oc2ccccc2)cc1,/,-13
O=C(O)CCSC(=S)N1CCCC1,0.4,5
O=C(NCCO)c1nc(NCCO)c2ccccc2n1,0.0,23
CC1Cc2ccccc2N1C(=O)C12CCC(C)(C(=O)C1)C2(C)C (configuration not stated),/,-20
CCOC(=O)c1sc2nccc(N(C)C)c2c1N,/,-16
Cc1cc(SCC(=O)O)n2c(nc3ccccc32)c1C#N,/,19
CCOc1ccc(NC(=O)CS(=O)(=O)c2ccccc2)cc1,2.5,-17
Cc1ccsc1C(=O)N(C)Cc1ccc2c(c1)OCCO2,/,-12
COc1cccc(OCC(O)CN2CCc3ccccc3C2)c1 (configuration not stated),/,-21
O=C(O)c1ccccc1-c1nc2ccccc2s1,3.1,-9
COCc1cc(C)[nH]c(=O)c1C#N,-0.8,6
Cn1nc(C(=O)NC2CCCc3ccccc32)c2c1-c1ccccc1SC2 (configuration not stated),2.6,4
CCCCNC(=O)c1cc(-c2ccc3c(c2)OCO3)on1,/,15
COc1ccc2cc3cc(C(=O)NCC4COc5ccccc5O4)sc3nc2c1 (configuration not stated),-0.9,15
CC1(C)CC(=O)C=C(NCCCN2CCCC2=O)C1,/,0
COc1ccc(-c2ccnc(SCC(=O)Nc3ccccc3)n2)cc1,-1.9,/
CCOc1ccc2nc(N3CCC(C(=O)NCCc4c[nH]c5ccccc45)CC3)sc2c1,/,10
O=C(OCc1cc2c(cc1Br)OCO2)C1CC2CCCC(C1)C2=O (configuration not stated),/,-1
CCc1ccc(-c2csc3ncn(CC)c(=O)c23)cc1,-4.8,8
C=CCOc1ccc(C(=O)NC2CC(C)(C)NC(C)(C)C2)cc1,1.5,8
O=C(CSc1ccc2ccccc2c1)Nc1ccccc1N1CCOCC1,-1.3,-19
Oc1ccccc1Oc1cnn(-c2ccccc2)c1-c1ccccc1,-0.5,-18
Oc1ccccc1C=Nc1ccc(F)cc1Br,1.8,/
N#CC1=C(N)OC2=C(C(=O)CC(c3ccccc3)C2)C1C1CCCCC1 (configuration not stated),/,-16
Cc1ccnc(N=Cc2c(C)[nH]n(-c3ccccc3)c2=O)c1,1.1,16
C=Cn1c2ccccc2c2nc3ccccc3nc21,0.3,10
O=S(=O)(c1cc(Cl)c(Cl)cc1Cl)N1CCCCC1,-0.4,/
CCOC(=O)c1cc(-c2ccccc2)n(CC(=O)N(C)c2ccc(C)cc2)c1C,3.4,4
CC(=O)Nc1nc(SCc2ccccc2Cl)n[nH]1,-2.5,6
Fc1ccc(C(c2nnc(-c3ccccc3)o2)N2CCc3ccccc32)cc1 (configuration not stated),/,-27
CCC(/C=N/N1C(=O)c2ccccc2C1=O)CC,/,16
Cc1c(-c2cccc(Cl)c2)nc2ccccc2c1C(=O)OCC(N)=O,3.2,3
O=C(Nn1cnc2ccccc2c1=O)C1CCCCC1,-0.1,-13
CN(Cc1nc(-c2ccccc2)no1)C(=O)C12CC3CC(CC(C3)C1)C2,-2.5,-1
O=C(O)/C=C/c1ccc(I)o1,6.2,4
O=C(NCCc1ccccc1)C1CC(=O)N(c2ccc(F)c(Cl)c2)C1 (configuration not stated),-4.2,6
CCN1C(=O)C2C(c3cccs3)NC(C)(C(=O)OC)C2C1=O (configuration not stated),0.0,2
O=C(Oc1ccccc1)c1cc2cc(Br)ccc2oc1=O,-7.7,2
COC(=O)Cc1cn(-c2ncc(C(F)(F)F)cc2Cl)c2ccccc12,1.4,/
O=S(=O)(Nc1ccccc1OC(F)F)c1ccc2nnn(O)c2c1,/,-4
CC(=O)Nc1ccc(S(=O)(=O)NC2CCCC2)cc1,-1.2,10
Cc1noc(C)c1COC(=O)CCN1c2ccccc2Sc2ccccc21,/,-6
CCc1ccccc1-n1c(=O)oc2ccc(Cl)cc2c1=O,/,-17
COCC(C)NC(=O)Cn1nc(C)c(NC(=O)c2cc(-c3ccccc3F)no2)c1C (configuration not stated),2.3,9
NCCSCc1ccco1,/,2
Cc1ccc(-n2nc(C)c3c(C)cc(=O)oc32)cc1C,0.1,-2
O=c1oc2ccccc2cc1-c1cn2cc(Cc3ccccc3Cl)sc2n1,-0.6,-2

# (more compounds)
SMILES,MgrA DNA FP,Sa helicase inh
Cc1nc(Cl)c(C(=O)N(C)c2ccccc2)c(C)c1Cl,-0.2,16
CC(C)(C)SCC(=O)Nc1cc(S(C)(=O)=O)ccc1Cl,/,-14
NNC(=O)CCC(=O)Nc1ccccc1,-3.0,6
Cc1cccc(C(=O)NCC(=O)OCc2ccc(F)cc2)c1,-1.4,-18
CSc1nccc2ccccc12,/,42
COCCN1C=C(C(=O)OC)C(c2ccsc2)C(C(=O)OC)=C1,/,31
COc1ccc(NC(=O)COCC(=O)O)cc1OC,-1.4,/
CCN(CC)Cc1nc2c(c(=O)[nH]1)C1(CCCC1)Cc1ccccc1-2,/,4
CCCS(=O)(=O)c1csc(C(=O)OC)c1N,-1.0,/
O=C(/C=C/c1cccs1)Nc1ccc(-c2nnc3n2CCCCC3)cc1,-0.8,4
O=C(OCC(=O)C12CC3CC(CC(C3)C1)C2)C1=COCCO1,/,1
CC(C)c1ccc(N2CC(C(=O)O)CC2=O)cc1 (configuration not stated),-2.9,10
CCOc1cccc2cc(C(N)=O)/c(=N/c3sc4c(c3C#N)CCCC4)oc12,-1.2,/
O=C(Oc1ccc2c3c(c(=O)oc2c1)CCC3)c1ccccc1,-1.8,/
O=C(O)c1c(CNCCc2c[nH]c3ccccc23)c2ccccc2n1Cc1ccccc1,-2.7,13
O=C(NCc1ccsc1)c1ccc2c(c1)OCCCO2,0.2,/
Cn1c(-c2ccccc2)c(C(=O)COC(=O)c2ccc(-n3cnnn3)cc2)c2ccccc21,/,2
COc1ccc(-c2csc(NC(=O)CN3CCCC3c3cccs3)n2)cc1 (configuration not stated),/,-4
CCOC(=O)CC1=C(C(=O)OCC)C(c2cccc(Cl)c2Cl)C(C#N)=C(N)O1 (configuration not stated),2.6,/
O=C1CCCN1CCCNc1nc2ccccc2n2nnnc12,0.4,-3
COc1cccc(-n2nnc3c(=O)n(Cc4ccc(C)cc4)cnc32)c1,/,10
CCSc1ccc(-c2noc(-c3cccc(C(F)(F)F)c3)n2)cn1,1.3,/
CN(C)CCN=CC1=C(O)CC(C)(C)CC1=O,1.4,26
Cc1cc(SCC(=O)N(C)C)n2c(nc3ccccc32)c1C#N,/,-27
Nc1cc(C(=O)OCCOc2ccc(Br)cc2)ccc1Cl,-2.1,15
CCCC1COC(Cn2cncn2)(c2ccc(C)cc2)O1 (configuration not stated),/,11
COc1cccc(OCC(=O)NCC(=O)O)c1,/,-2
CCOC(=O)c1c(-c2ccc(OC)cc2)cn2ccccc12,2.3,/
Oc1ccccc1-c1cc(-c2cccs2)[nH]n1,4.2,/
Cc1cc(C)nc(NS(=O)(=O)c2ccc(N3C(=O)c4ccc(C(=O)O)cc4C3=O)cc2)n1,/,-19
CCSc1nnc(NC(=O)CSc2cn(CCNC(=O)c3ccc(OC)cc3)c3ccccc23)s1,/,34
O=C(COCc1cc(-c2ccco2)on1)NCc1ccccc1,/,11
CC(=O)N1CC2(C)CN(C(C)=O)CC(c3ccccc3)(C1)C2O (configuration not stated),-0.1,23
O=C(COc1ccccc1)Nc1ccc(-c2cn3cccnc3n2)cc1,/,14
O=C1c2ccccc2C(=O)N1CSc1nc2nn(-c3ccccc3)c(=O)c-2c2n1CCCCC2,/,18
O=C(Oc1ccccc1)c1ccc2c(c1)CCO2,0.1,/
Cc1cc(C)cc(NC(=O)COc2ccccc2C)c1,-0.2,8
CC(C)CN(CC(C)C)C(=O)Cn1cnc2ccccc21,0.3,-21
O=C1CN(C(=O)CC2CCCCC2)C(c2ccccc2)c2cc(Br)ccc2N1 (configuration not stated),3.8,11
CCOC(=O)C1CCN(Cc2cccc(NC(=O)c3cc(C)on3)c2)CC1,/,-23

# 5 entries already listed, arranged by molar mass, rising.
SMILES,MgrA DNA FP,Sa helicase inh
Oc1ccccc1-c1cc(-c2cccs2)[nH]n1,4.2,/
CC(=O)Nc1nc(SCc2ccccc2Cl)n[nH]1,-2.5,6
C=CCOc1ccc(C(=O)NC2CC(C)(C)NC(C)(C)C2)cc1,1.5,8
Cc1c(-c2cccc(Cl)c2)nc2ccccc2c1C(=O)OCC(N)=O,3.2,3
CCOc1cccc2cc(C(N)=O)/c(=N/c3sc4c(c3C#N)CCCC4)oc12,-1.2,/

# Following part.
SMILES,MgrA DNA FP,Sa helicase inh
Clc1ccc(OCOc2ccc(Cl)cc2)cc1,0.9,/
CC(C)(Oc1ccc(Cl)cc1)C(=O)N1CCC2(CC1)NC(=O)c1ccccc1O2,/,4
CC(C)N(Cc1ccc(N(C)C)cc1)S(=O)(=O)c1cc(Cl)c(Cl)cc1Cl,-3.2,/
CCN1CCN(C(=S)NC)CC1,-0.2,13
CN1CCN(CCNC(=O)c2nc(-c3cccnc3)no2)CC1,-0.2,4
CCCn1c(SCC(=O)N(C(C)C)C(C)C)nnc1-c1cccnc1,-0.9,3
CNC1CCCCN(C(=O)c2ccc(F)cc2)C1=O (configuration not stated),/,-13
CNC(=O)NC(=O)C(Sc1nnnn1C)c1ccccc1 (configuration not stated),/,-5
CNC(=O)CN(c1cc(C)ccc1C)S(C)(=O)=O,0.6,3
NC(=O)c1sc2nc(-c3ccccc3)ccc2c1N,0.1,-10

# Seven records picked at random from those above:
SMILES,MgrA DNA FP,Sa helicase inh
CCc1ccc(-c2csc3ncn(CC)c(=O)c23)cc1,-4.8,8
O=S(=O)(Nc1ccccc1OC(F)F)c1ccc2nnn(O)c2c1,/,-4
Oc1ccccc1Oc1cnn(-c2ccccc2)c1-c1ccccc1,-0.5,-18
O=C(Oc1ccc2c3c(c(=O)oc2c1)CCC3)c1ccccc1,-1.8,/
CN1CCN(CCNC(=O)c2nc(-c3cccnc3)no2)CC1,-0.2,4
O=C(NCCc1ccccc1)C1CC(=O)N(c2ccc(F)c(Cl)c2)C1 (configuration not stated),-4.2,6
O=C(/C=C/c1cccs1)Nc1ccc(-c2nnc3n2CCCCC3)cc1,-0.8,4

# The list continues.
SMILES,MgrA DNA FP,Sa helicase inh
COCCN(CCOC)S(=O)(=O)c1ccc(C(=O)Nc2nnc(-c3cccc([N+](=O)[O-])c3)s2)cc1,-0.9,/
CSc1cccc(NC(=O)CSc2nc(C)cs2)c1,/,2
FC(F)(F)c1ccc(-c2nnc(SCc3ccncc3)n2Cc2ccco2)cc1,-0.1,/
O=c1ssc(=NCc2ccccc2)n1Cc1ccccc1,2.6,/
CC(C)(C)c1nnc(-c2ccc(Oc3cc(Cl)cc(Cl)c3)o2)o1,-1.9,/
COc1ccc(CCNc2nc(N3CCCC3)nc(N3CCCC3)n2)cc1OC,0.6,-15
COc1ccc(N(C=O)C(=S)SC)cc1,/,-2
O=C(NC(=O)N1CCOCC1)c1csnn1,0.3,/
CCOc1ccc(C(=O)OCC(=O)NC2CCCCC2C)cc1 (configuration not stated),-1.9,11
CS(=O)(=O)Nc1nc2ccc(Cl)cc2s1,2.0,-11
CNc1nnc(-c2ccccc2)c2ccccc12,/,15
S=C(NCc1ccccc1)N1CCn2c(nc3ccccc32)C1,0.2,18
Cc1onc(-c2c(Cl)cccc2Cl)c1NC(=O)N(C)N,/,-7
Cc1ccccc1NC(=O)CSc1nc2scc(C)c2c(=O)[nH]1,-4.2,3
O=c1oc2ccc3ccccc3c2c2c1SC(C(F)(F)F)C2 (configuration not stated),1.9,12
CC1O[C@H](O[C@]2(O[C@H]3CC[C@@]4(C)C(=CC[C@H]5[C@@H]6C[C@H]7[C@H]([C@H](C)[C@H]8CC[C@H](C)CN87)[C@@]6(C)CC[C@@H]54)C3)C[C@@H](O[C@@H]3OC(CO)[C@@H](O)[C@@H](O)C3O)[C@@H](O)C(CO)O2)C(O)[C@@H](O)[C@H]1O (some centres not stated),0.2,/
Cc1noc(C)c1CSc1ncccc1C(=O)N(C)CCOc1ccc(Br)cc1,/,-5
CN(C)c1nc(C(N)=O)nc(N2CCOCC2)n1,/,30
NC(=O)c1c(NC(=O)COc2ccc(Cl)cc2)sc2c1CCN(Cc1ccccc1)C2,/,-17
Nc1ccc(OC(F)(F)F)cc1,0.3,-3
Cc1ccc(OC(=O)/C=C/c2cccs2)c([N+](=O)[O-])c1,-0.6,/
Cc1ccc(C(=O)Nc2nccs2)cc1I,0.4,15
Cc1cc(NS(=O)(=O)c2ccc(NC(=O)c3ccc(Cl)cc3)cc2)no1,2.4,/
O=C(OC1CCCCC1=O)c1cc(=O)c2ccccc2o1 (configuration not stated),/,5
CN1CCN(c2ccccc2NC(=O)C(Cc2ccccc2)n2cccc2)CC1 (configuration not stated),5.6,8
Clc1ccc(-c2noc3ncnc(NCCN4CCOCC4)c23)cc1,/,0
O=C(Cc1ccccc1)NC1CCN(C(=O)c2ccco2)CC1,-1.1,/
COCCN1C(=O)CC(Sc2ncccc2C(=O)O)C1=O (configuration not stated),-7.8,-20
CCOC(=O)n1c(=S)oc2ccccc21,10,-13
Cc1cc(C)c(CSCCn2c(C)ccc2C)c(C)c1,-1.0,/
CCOC(=O)c1c(C)[nH]c(C(=O)c2cc3cc(Br)ccc3o2)c1C,/,2
COc1cc(C(=O)CN2C(=O)c3ccccc3C2=O)c(OC)cc1Br,1.9,0
c1ccc(CNc2nc3ccccc3n3cnnc23)cc1,-0.8,/
CCOC(=O)c1ccc(N2C(=O)C(Oc3ccccc3)C2c2ccc(OCC)cc2)cc1 (configuration not stated),-2.6,12
CC(=O)N(C)/C=C1\Sc2ccccc2C1=O,-0.2,/
CN(c1ccccc1)S(=O)(=O)c1ccc(C(=O)Nc2nccs2)cc1,/,2
CC1Oc2ccccc2N(CC(=O)NCC2CCCO2)C1=O (configuration not stated),2.4,-1

# From PubChem BioAssay
